Assay outcomes: PubChem, National Center for Advancing Translational Sciences (NCATS)
Sfp inh – qHTS Assay for Inhibitors of Bacillus subtilis Sfp phosphopantetheinyl transferase (PPTase) | 4'-phosphopantetheinyl transferase ffp (Bacillus subtilis), Q9F4F7 | Biochemical Sfp PPTase activity, qHTS | Potency, µM, inactives show max response, negative = inhibition, actives largely listed as inhibitors | 310,000 compounds, 3.5% hits | AID 1490, 2009; active means well fitted inhibition curve with a large enough effect; inconclusive means small, poorly fitted or top-dose-only effect, or another doubt; inactive means no such curve, though single readings can be large or run the other way;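 further: the enzyme is Sfp with the accession as filed and its product quenches rhodamine fluorescence; potency means the concentration at half of the fitted maximal effect; 0% = enzyme reaction without inhibitor and -100% = no enzyme wells; top concentration of the series not given in the record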
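Buffer: 50 mM Hepes-Na pH 7.6, 10 mM MgCl2, 0.01% Nonidet P-40, 0.01% BSA. Enzyme 15 nM, pre-exposed to compound 15 min; substrates then added and fluorescence change tracked over 30 min.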
Menin MLL FP FL – qHTS Assay for Inhibitors Targeting the Menin-MLL Interaction in MLL Related Leukemias: Competition With Fluorescein Labeled MLL-derived Peptide. Fluorescence polarization, fluorescein-MLL peptide displacement from menin. 290,000 tested, under 10 active. AID 1766, 2009. FP activity change, % at 61.4 µM; inconclusive = falling polarisation curve, or a change in total fluorescence; inactive = total fluorescence flat and polarisation flat or rising; no compound was filed as active; the % refers to the polarisation; negative = inhibition;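 further: % of control where 0% means no effect; inhibitors lower the polarisation; unlabelled MLL peptide was the positive control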
CtBP-E1A blk – qHTS Assay for Inhibitors of the CtBP/E1A Interaction | 340,000 compounds, 0.49% hits | activity change, % (no concentration beside the values) | AlphaScreen GST-E1A/His-CtBP binding, 1536-well; active compounds read low; control for the full effect not named in the record | CtBP / adenovirus E1A interaction (AlphaScreen) | AID 651724, 2012; in the data active means activity change below about -65%; inconclusive means about -30% to -65%; inactive means above about -30%; further: on the % scale 0 is the no-effect control and ±100 the full control effect
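Protein mix (5X: 125 nM each GST-E1A, His-CtBP) was incubated with pinned compound 2 h at 37 deg C in dark, in 50 mM Tris pH 8.0 buffer with 300 mM NaCl. Glutathione donor and nickel acceptor beads followed; AlphaScreen signal read after 1 h.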
gsp agonist – qHTS for Agonist of gsp, the Etiologic Mutation Responsible for Fibrous Dysplasia/McCune-Albright Syndrome: qHTS | AID 624287, 2012 | 340,000 compounds, 0.13% hits | gsp mutant cells, cAMP HTRF, 30 min; control for the full effect not named in the record | Potency, µM (doses to about 76.9 µM), for inactives: at the highest dose activation (cAMP increase), usual class: activators; active = well fitted activation curve with a large enough effect; inconclusive = small, poorly fitted or top-dose-only effect, or another doubt; inactive = no such curve, though single readings can be large or run the other way; cell line not stated here;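 further: phosphodiesterase inhibitor Ro 20-1724 added with compounds to block cAMP breakdown; potency means the concentration at half of the fitted maximal effect; nearly all actives have a fitted effect of over 60% in size; about a fifth of the inactives were tested at one dose only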
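Cells in DMEM/10% FBS with G418 were pretreated with compounds in DMSO plus […] (300 uM stock) for 30 min at 37C. cAMP was measured by HTRF (cAMP-d2 plus anti-cAMP antibody-K) after 30 min at room temperature.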
gsp antag – qHTS for Antagonists of gsp, the Etiologic Mutation Responsible for Fibrous Dysplasia/McCune-Albright Syndrome: qHTS | gsp-mutant cells, cAMP HTRF, 30 min; control for the full effect not named in the record | Potency, µM (doses to about 76.9 µM), for the others: top-dose activity change, negative = inhibition, most hits filed as inhibitors | 340,000 compounds, 0.4% hits; active = falling curve of any shape with a large fitted effect; inconclusive = falling curve, mostly with a smaller effect; inactive = flat or rising curve; cell line not stated here;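 further: intracellular cAMP measured with PDE inhibitor Ro 20-1724 present during compound exposure; potency means the concentration at half of the fitted maximal effect; on the % scale 0 is the no-effect control and ±100 the full control effect; nearly all actives have a fitted effect of over 65% in size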
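Cells in G418 medium, seeded 16-24 h, 37C; buffer exchange to DPBS + 1 mM CaCl2, 0.5 mM MgCl2, 0.05% BSA; cpds in DMSO + […] (300 uM stock), 30 min 37C; HTRF cAMP detection.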
TRPV1 potentiator – HTS Assay for Compounds that Act as Potentiators of the Vanilloid Receptor 1 | Transient receptor potential cation channel subfamily V member 1 (Homo sapiens), Q8NER1 | TRPV1-expressing cells, Fluo-8 calcium influx, capsaicin EC20 potentiation; host cell line not named in the record; control for the full effect not named in the record | potentiation, % at 8.33 µM | 320,000 compounds, 0.02% hits | AID 540277, 2011; active means potentiation above 80%; inconclusive means 30% to 80%; inactive means below 30%; further: 0% is about no effect
Target sequence (Q8NER1 whole entry, looked up): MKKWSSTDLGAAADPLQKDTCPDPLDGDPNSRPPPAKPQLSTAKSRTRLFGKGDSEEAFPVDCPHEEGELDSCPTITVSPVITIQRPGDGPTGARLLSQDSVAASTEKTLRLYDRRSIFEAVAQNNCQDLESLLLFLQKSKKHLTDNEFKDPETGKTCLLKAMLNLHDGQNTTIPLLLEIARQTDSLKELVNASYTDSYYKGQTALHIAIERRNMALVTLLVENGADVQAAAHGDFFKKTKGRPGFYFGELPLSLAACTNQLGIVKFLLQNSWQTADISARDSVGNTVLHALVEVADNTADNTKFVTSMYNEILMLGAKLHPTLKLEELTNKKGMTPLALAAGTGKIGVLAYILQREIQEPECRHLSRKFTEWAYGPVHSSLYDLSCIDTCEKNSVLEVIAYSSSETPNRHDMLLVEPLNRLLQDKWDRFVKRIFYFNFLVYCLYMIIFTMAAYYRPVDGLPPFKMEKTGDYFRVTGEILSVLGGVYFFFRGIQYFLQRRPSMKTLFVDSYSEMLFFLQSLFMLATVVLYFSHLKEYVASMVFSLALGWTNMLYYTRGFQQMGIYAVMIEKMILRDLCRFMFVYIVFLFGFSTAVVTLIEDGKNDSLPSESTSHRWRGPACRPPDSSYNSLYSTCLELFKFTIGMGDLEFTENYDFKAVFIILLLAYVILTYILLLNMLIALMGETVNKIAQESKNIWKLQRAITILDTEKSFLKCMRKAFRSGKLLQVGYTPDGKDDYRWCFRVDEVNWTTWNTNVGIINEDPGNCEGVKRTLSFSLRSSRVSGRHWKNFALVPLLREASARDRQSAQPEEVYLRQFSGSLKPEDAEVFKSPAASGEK
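TRPV1-expressing cells were cultured overnight at 35.5C and loaded with Fluo-8 calcium dye for 40 to 90 min at room temperature. After a 10 s baseline, compound was added and calcium influx was read kinetically for 3 min (ex 480/em 520 nm).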
ClpP mod – qHTS Assay for Activators of ClpP. ATP-dependent Clp protease proteolytic subunit (Bacillus subtilis (strain 168)), P80244. purified B. subtilis ClpP, FRET peptide cleavage, 20 min. Potency, µM (doses to about 57.5 µM), for inactives: at the highest dose activity change, negative = active. 340,000 compounds, 1.9% hits; active = well fitted falling curve with a large enough effect; inconclusive = small, poorly fitted or top-dose-only effect; inactive = no such curve, though single readings can be large or run the other way; further: potency means the concentration at half of the fitted maximal effect; the source files actives as falling curves though it sought activators and does not explain the sign; nearly all actives have a fitted effect of over 65% in size; many hits overshoot -100%
Target sequence (P80244 whole entry, looked up): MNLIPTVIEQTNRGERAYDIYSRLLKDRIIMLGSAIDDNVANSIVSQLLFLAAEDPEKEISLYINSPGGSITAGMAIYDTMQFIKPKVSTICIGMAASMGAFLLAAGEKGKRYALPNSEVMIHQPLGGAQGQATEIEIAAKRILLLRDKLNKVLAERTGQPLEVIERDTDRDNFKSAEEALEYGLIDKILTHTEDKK
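ClpP 10 microg/mL final, pH 8 Tris/KCl buffer with BSA, glycerol, Tween-20; compound pinned in; FRET-FV substrate; RT 20 min; Ex320/Em430; ΔFRET vs ADEP 5.8 microM, DMSO, no enzyme.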
An asterisk follows results filed as active; ? = inconclusive; · = not tested or not shown; & = joins results of further samples; [ ] = dose if it differs, or a comment.

Values run as follows: TRPV1 potentiator | Menin MLL FP FL | Sfp inh | gsp antag | gsp agonist | ClpP mod | CtBP-E1A blk
- COc1ccc(NC(=O)COC(=O)CCSc2ccccc2)cc1OC
  · | · | · | 9% | -7% | 1.2% | 2
- Clc1cccc(Nc2c3c(nc4ncnn24)CCC3)c1
  -9 | 1.8 | 17% | -2% | 8% | 0.5% | 5
- COc1cc(S(=O)(=O)N2CCCCC2)ccc1NC=O
  20 | -0.3 | -8% | -11% | -25% | -1.7% | -10
- CCN(Cc1ccc(Cl)s1)C(=O)c1cccc(OCc2c(C)noc2C)c1
  · | · | · | -30% | -5% | 0.5% | 5
- COc1ccc(N2CCN(C(=O)c3ccc(F)cc3)CC2)c([N+](=O)[O-])c1
  -37 | -1.9 | -16% | · | 26%[15.4 µM] | · | 1
- O=C(COc1ccccc1)Nc1cccc(S(=O)(=O)N2CCCC2)c1
  3 | · | · | -7% | 5% | -2.2% | -6
- CCC(=O)NC(Nc1cc(C)ccn1)(C(F)(F)F)C(F)(F)F
  20 | -1.7 | 9% | 8% | 13% | -13% | -24
- Cc1nc(NC(=O)COC(=O)C(NC(=O)c2ccco2)C(C)C)c(Cl)cc1Cl (centres undefined)
  7 | 3.5 | -6% | -5% | -11% | -0.4% | 6
- Clc1ccc(Cn2ccc(-c3ccc4c(c3)OCO4)n2)cc1Cl
  0 | 0.3 | -9% | -8% | -9% | -11% | 22
- Cc1ccc(-n2ncc3c2CC(C)(C)CC3NC(=O)CCCN2CCCCC2=O)cc1 (centres undefined)
  5 | · | 8% | -11% | ? | -2.8% | -5
- CCN(CC(=O)Nc1cc(S(=O)(=O)N2CCOCC2)ccc1Cl)Cc1ccccc1
  -2 | · | · | ? | -5% | -1.7% | -22
- CCOC(=O)c1ccc(NC(=S)Nc2ccc(Cl)cn2)cc1
  -1 | 2.8 | 6% | 6% | ? | -2.6% | -14
- Cc1ccc(SC[C@H](CC(C)C)N2CCN(CCc3ccccc3)CCC2=O)cc1
  -11 | -2.6 | 14% | -20% | · | 1.2% | -7
- O=C(NC1CCC(O)CC1)c1ccc(NS(=O)(=O)c2cccc([N+](=O)[O-])c2)cc1 (centres undefined)
  -10 | · | · | ? | 17% | 1.7% | 6
- CC1N(C(=O)N2CCOCC2)CCN1S(=O)(=O)c1cccc(C(F)(F)F)c1 (centres undefined)
  7 | 2.1 | 8% | 1% | 4%[15.4 µM] | · | 6
- COc1ccc(Cn2nnnc2C(CC(C)C)N2CCN(c3ccccc3)CC2)cc1 (centres undefined)
  -3 | 0.7 | -7% | 4% | ? | 0.9% | -7
- O=C(CCC(=O)Nc1cc(C(F)(F)F)ccc1Cl)N/N=C\c1cc([N+](=O)[O-])ccc1O
  ? | 11 | 10% | -15% | -11% | · | -67*
- Cn1c(N)c(C(=O)COC(=O)c2cccs2)c(=O)n(C)c1=O
  0 | 4.8 | 3% | -5% | ? | -1.5% | -15
- Cc1nnc(NC(=O)C2C3C=CC(O3)C2C(=O)O)s1 (centres undefined)
  -30 | 5.9 | -27% | · | · | · | ·
- Cc1cc(CN(C)Cc2cn(C)nc2-c2ccc(Oc3ccccc3)cc2)on1
  5 | 3.2 | 7% | ? | 9% | -0.7% | ·
- O=C(NCc1ccccc1)C1CCCN1C(=O)Nc1ccccc1[N+](=O)[O-] (centres undefined)
  8 | 2.0 | 24% | 10% | -5% | -1.0% | 11
- CCOC(=O)C1=C(C)NC(=S)NC1c1cc(C)sc1C (centres undefined)
  3 | -6.0 | 4% | 0% | 10% | -0.7% | ·
- COc1ccc(N(CC(=O)NCc2ccccn2)S(=O)(=O)c2ccccc2[N+](=O)[O-])c(OC)c1
  2 | -0.3 | 17% | -7% | -4%[15.4 µM] | · | 0
- O=C1N(c2ccccc2C(F)(F)F)O[C@]1(c1ccccc1)C1CCCC1
  -12 | · | · | -4% | 1% | 1.6% | 15
- O=C(Nc1cccc(S(=O)(=O)N2CCOCC2)c1)c1cccc(S(=O)(=O)N2CCCC2)c1
  -6 | · | · | 4% | 1% | -0.4% | -2
- CN(C(=O)CSc1nc(-c2cccs2)nc2ccccc12)C1CCS(=O)(=O)C1 (centres undefined)
  · | · | · | ? | 5%[15.4 µM] | 1.1% | 2
- CCc1cc2c(=O)n(Cc3ccco3)c(SCC(=O)N3CCCc4ccccc43)nc2s1
  -2 | 5.4 | 45µM* | -7% | -20% | -3.7% | -9
- Cc1ccc(C2/C(=C(/O)c3ccccc3)C(=O)C(=O)N2CCN2CCOCC2)o1 (centres undefined)
  13 | 2.0 | -1% | -2% | 10% | -2.7% | 7
- CCN(C(=O)C1CCN(c2nc(-c3ccc(OC)cc3)no2)CC1)c1ccc(OC)cc1
  -25 | 1.6 | -4% | ? | -60%[inhibitor] | -0.2% | 3
- O=C(CCCN1C(=O)c2ccccc2C1=O)Nc1ccc(Br)cn1
  10 | 1.3 | 4% | 13% | 4% | 0.2% | 14
- CCOC(=O)c1ccc(NC(=O)COc2ccc(-n3cnnn3)cc2)cc1
  9 | 0.6 | -36% | -7% | -27% | 0.5% | -2
- CC(C)CN(C(=O)CN1C(=O)NC2(CCc3ccccc32)C1=O)C1CCS(=O)(=O)C1 (centres undefined)
  4 | · | · | 17% | 10% | -0.8% | 6
- c1ccc(SCc2cc(-c3ccccc3)no2)cc1
  -15 | 4.1 | 12% | -6% | 10%[15.4 µM] | 0.2% | -16
- CC[C@]1(C(=O)OC)[C@H]2C(=O)N(Cc3ccccc3)C(=O)[C@H]2[C@H]2CN(C)C(=NC)N21
  · | · | · | 3% | · | 1.4% | 5
- Cc1ccc(-c2nsc(SCC(=O)NCC3CCCO3)n2)cc1 (centres undefined)
  -7 | 0.2 | 20% | 0% | 9%[15.4 µM] | · | -1
- N#C/C(=C\Nc1ccccc1O)c1nc2ccccc2o1
  -8 | 25 | ? | 50µM* | -6% | -5.8% | -15
- Cc1ccc(S(=O)(=O)N2C[C@H]3n4c(=O)ccc(=O)n4C[C@H](OC(=O)NCc4ccccc4)[C@@]3(O)C2)cc1
  · | · | · | · | -46%[inhibitor] | -0.7% | -12
- CCOC(=O)c1ccc(S(=O)(=O)N2CC(=O)Nc3ccccc32)cc1
  2 | 4.9 | -21% | 11% | 0%[15.4 µM] | · | -7
- CC(=O)c1cccc(NC(=O)C(=O)Nc2cccc3ccccc23)c1
  3 | 2.3 | 23% | -5% | -4%[15.4 µM] | 0.8% | -20
- CCOC(=O)C(CC(C)C)CP(=O)(O)CNC(=O)OCc1ccccc1 (centres undefined)
  -2 | 2.3 | 19% | 9% | -44%[inhibitor] | -1.5% | -1
- O/N=C(/Cc1ccccn1)c1ccccc1
  3 | 3.8 | 0% | 8% | 2% | -0.1% | -1
- CC(C)Sc1cc(N2CCCC2)nc(-c2ccccc2Cl)n1
  -10 | · | 2% | -9% | 6%[15.4 µM] | 0.7% | 16
- CC(C)C1CC(CCNCc2ccc3c(c2)OCO3)(c2ccccc2)CCO1 (centres undefined)
  8 | 0.5 | 8% | -18% | ? | · | -1
- C=CCN1C(=O)c2ccc(C(=O)OCC(=O)Nc3ccc(S(N)(=O)=O)cc3)cc2C1=O
  -1 | · | · | 3% | -8%[15.4 µM] | · | -6
- COc1ccc(CCNC(=O)c2cc3c(=O)n4ccccc4nc3n(CC3CCCO3)c2=N)cc1 (centres undefined)
  · | · | · | -4% | · | 4.7% | 1
- COc1ccc(CN2CCN(C(=O)c3cc(-c4cccnc4)nc4ccc(Cl)cc34)CC2)c(OC)c1OC
  2 | -0.8 | 3% | -8% | -6%[15.4 µM] | -2.1% | 14
- CS(=O)(=O)c1ccc(C(=O)CN2C(=O)NC3(CCCc4ccccc43)C2=O)cc1 (centres undefined)
  -5 | · | · | -7% | -26% | -2.6% | -1
- CCCN(CC1CC1)C(=S)NC(=O)C1CC1
  -8 | -1.3 | -12% | 9% | -1%[15.4 µM] | -1.9% | 0
- Cc1sc(NC(=S)NC(=O)CCc2ccccc2)c(C(N)=O)c1C
  -18 | 4.0 | -21% | -11% | 19% | 28µM* | -1
- Fc1cc(F)c2nc(N3CCCC3)sc2c1
  -12 | -7.0 | 17% | 1% | -4%[15.4 µM] | · | 12
- CCCNC(=S)N1CCC(n2cnc3ccccc32)CC1
  -1 | 0.3 | 15% | 2% | -37%[inhibitor] | 1.5% | 10
- Cc1cc(NO)c(C(C)C)cc1N=O
  -1 | 0.5 | 4% | 13% | -36%[inhibitor] | -1.0% | 2
- COc1ccc(CN2[C@@H](CC(=O)O)c3cc(C(F)(F)F)ccc3S2(=O)=O)cc1
  · | · | · | 4% | -56%[inhibitor] | -3.4%&1.7% | -1
- COc1ccc(-c2n[nH]c(C)c2-c2cscn2)c(O)c1
  -16 | -0.1 | 7% | 6% | 2% | -3.3% | -6
- Fc1ccc(-n2[nH]nnc2=S)cc1N1CCCC1
  2 | -1.3 | 79µM* | -19% | -10% | 2.0% | 9
- CCn1nc(C(=O)Nc2ccccc2N2CCCC2)c2ccccc2c1=O
  6 | · | · | -22% | 9%[15.4 µM] | · | ?
- CCNC(=O)C12CCC(C)(C(=O)O1)C2(C)C (centres undefined)
  5 | -3.3 | 11% | 8% | 29% | · | -13
- CCOC(=O)/C(C#N)=C/c1cn(CCC(=O)O)nc1-c1ccc(OC)cc1
  6 | 2.8 | 18% | · | -6%[15.4 µM] | · | 2
- COc1ccc(CCNCC(O)COc2ccc(OC)cc2C(C)(C)C)cc1 (centres undefined)
  -2 | -4.7 | ? | 8% | 20%[15.4 µM] | · | -15
- O=C1C[C@H]2[C@H](CO)[C@@H](OC(=O)c3ccc(-c4ccccc4)cc3)C[C@H]2O1
  -19 | 4.2 | 6% | -13% | 57% | · | 6
